# Compound activity: PubChem, National Center for Advancing Translational Sciences (NCATS)
# miR-21 reporter – raises the signal of a miR-21 reporter | HeLa miR-21 FLuc reporter, luciferase, 48 h | AID 2288 | Potency, µM (top dose mostly 38.3 µM), for the others: at the highest dose reporter change, positive = more light | 340,000 tested, under 10 active; active = well fitted rising curve with a large enough effect; inconclusive = small, poorly fitted or top-dose-only effect; inactive = no such curve, though single readings can be large or run the other way;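 note: % of control where 0% means no effect; miR-21 action dims this reporter so a rising signal means less miR-21 action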
#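 Using DMEM plus 10% FBS, HeLa miR-21-FLuc cells are incubated with test compounds (final up to about 40uM) for 48 hours; firefly luciferase signal is then imaged following reagent-mediated lysis.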
# GLA inh pH 4.5 – inhibitors of human alpha-galactosidase A at pH 4.5; 230,000 tested, under 10 active; activity change, negative = inhibition, % at 105 µM; purified enzyme, 4-MU-alpha-Gal fluorescence, pH 4.5; P06280; AID 1467; inconclusive = small, poorly fitted or top-dose-only inhibition, or a rising curve; inactive = flat fitted curve, though single readings scatter; no compound was filed as active;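 note: 0% = full activity with enzyme and -100% = basal without enzyme; dose as in the result columns while the protocol names 77 µM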
# Rango dissoc inh – prevents RanGTP from dissociating the Rango-importin beta complex | Potency, µM (top dose mostly 46.1 µM), without a hit: top-dose activity change, negative = inhibition | Biochemical FRET Rango-importin beta, RanGTP-induced dissociation | 340,000 tested, 0.071% active; active means falling FRET ratio curve, often poorly fitted, with flat reads before Ran was added; inconclusive means other falling curves, or compound fluorescence or quenching; inactive means flat or rising ratio curve;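 note: potency is the fitted concentration of half-maximal effect; % of control where 0% means no effect; nearly all actives have a fitted effect of over 45% in size; -100% = wells without RanGTP and RCC1; the record marks most hits as doubtful in a second field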
#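 Rango (0.1 uM)–importin beta (0.25 uM) complex; RanGTP-RCC1 trigger; 45 min RT; CFP/YFP FRET read.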
# Rango-impB inh – inhibitors of Rango-importin beta complex formation | Rango CFP/YFP FRET sensor + importin beta, 45 min | AID 540263 | Potency, µM (titrated, usually from 92.2 µM), for inactives: at the highest dose inhibition of complex formation | 340,000 tested, 0.031% active; active = rising FRET ratio curve, often small or poorly fitted; inconclusive = mostly compound fluorescence or quenching in the first reads; inactive = flat curves in all reads;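 note: potency is the fitted concentration of half-maximal effect; 0% = DMSO wells and 100% = buffer wells lacking importin beta; nearly all actives have a fitted effect of over 15% in size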
# Target sequence (Q14974 whole entry, looked up): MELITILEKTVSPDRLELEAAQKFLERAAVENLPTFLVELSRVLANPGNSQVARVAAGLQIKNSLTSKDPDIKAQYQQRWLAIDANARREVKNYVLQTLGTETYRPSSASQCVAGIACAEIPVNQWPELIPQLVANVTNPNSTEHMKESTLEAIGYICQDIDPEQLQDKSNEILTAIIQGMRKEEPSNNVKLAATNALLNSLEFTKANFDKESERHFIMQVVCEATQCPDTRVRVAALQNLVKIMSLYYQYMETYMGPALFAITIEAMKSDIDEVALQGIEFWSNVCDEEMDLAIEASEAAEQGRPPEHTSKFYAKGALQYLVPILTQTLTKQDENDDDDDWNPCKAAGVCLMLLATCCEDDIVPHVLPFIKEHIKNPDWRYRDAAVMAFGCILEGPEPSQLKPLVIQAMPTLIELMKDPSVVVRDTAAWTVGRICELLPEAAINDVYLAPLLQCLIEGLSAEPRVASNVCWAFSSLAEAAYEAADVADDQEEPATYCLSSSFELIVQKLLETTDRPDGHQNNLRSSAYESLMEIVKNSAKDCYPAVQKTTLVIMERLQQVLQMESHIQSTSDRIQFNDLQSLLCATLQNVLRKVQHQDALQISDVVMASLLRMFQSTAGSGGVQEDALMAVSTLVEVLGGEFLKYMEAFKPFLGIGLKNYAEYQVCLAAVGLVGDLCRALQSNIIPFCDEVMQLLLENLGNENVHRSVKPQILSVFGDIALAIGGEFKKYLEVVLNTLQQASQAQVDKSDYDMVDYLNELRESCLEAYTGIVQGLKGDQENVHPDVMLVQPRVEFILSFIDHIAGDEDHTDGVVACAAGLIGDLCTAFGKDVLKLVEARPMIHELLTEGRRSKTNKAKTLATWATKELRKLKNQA
#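 FRET biosensor Rango (snurportin 1 IBB between N-terminal EYFP and C-terminal Cerulean), 50 nM in PBS/1 mM DTT/0.02% Tween-20/0.1% BSA, preincubated 5 min RT with compound; 0.125 microM importin beta added, 45 min RT, CFP/YFP FRET ratio read.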
# An asterisk follows results filed as active; ? = inconclusive; . = not tested or not shown; [ ] = dose if it differs, or a comment.
SMILES,miR-21 reporter,GLA inh pH 4.5,Rango dissoc inh,Rango-impB inh
CCCCCC(=O)Nc1ccc(S(=O)(=O)Nc2nccnc2OC)cc1,-7%,-1,2%,0.3%
CN(C)Cc1c(C(=O)Nc2ccccc2)[nH]c2ccccc12,.,.,-12%,1.1%
COc1ccc(NC(=O)CSc2nnc(C3CC3)n2C)cc1S(=O)(=O)N1CCCCC1,.,.,12%,0.1%
O=c1cc(CO)oc(CN2CCCC2)c1O,0%,3,-8%,-0.9%
Cc1cc(Nc2ccc(F)cc2C)n2ncnc2n1,-13%,4,9%,-2.4%
COc1ccc(CNC(=O)C(C)N(Cc2ccccc2OC)C(=O)c2snc(C(N)=O)c2N)cc1 (stereo unspecified),15%,.,-12%,?
O=c1c(=Nc2ccccc2O)c(=O)c2ccccc12,-54%,7,2%,3.2%
c1csc(-c2nn3c(Cn4nnc5ccccc54)nnc3s2)c1,-4%,-1,1%,0.4%
O=C(O)C(Cc1ccc(Cl)cc1)NS(=O)(=O)c1ccc(Cl)cc1 (stereo unspecified),0%,.,0%,2.8%
CCN1CCn2c3c(c4cc(C)ccc42)CCCC31 (stereo unspecified),-30%,-16,3%,0.5%
CCCCNC(=O)CSc1nnc(-c2ccc(S(=O)(=O)N3CCCC3)cc2)n1C,-5%,-2,8%,-1.3%
CN(c1ccccc1C(=O)NCc1ccco1)S(C)(=O)=O,-3%,0,-2%,2.7%
CCCCNC(=O)N1CCCC(C(=O)c2cc(C)c(OC)c(C)c2)C1 (stereo unspecified),13%,.,0%,0.9%
CCOCCCNC(=O)c1ccc2c(c1)N(CC)C(=O)c1ccccc1S2=O (stereo unspecified),12%,.,-1%,-3.2%
Cc1ccc(S(=O)(=O)N2C(=O)C(c3ccccc3)SC2=Nc2ccccc2)cc1 (stereo unspecified),-20%,0,-8%,2.4%
Cc1cc(NC(=O)c2cccc(S(=O)(=O)N3CCCCC3)c2)no1,2%,.,7%,0.7%
C/C=C(/CCC1NCCc2c1[nH]c1ccccc21)[Si](C)(C)C (stereo unspecified),.,.,?,?
CCN(/C=N/S(=O)(=O)c1ccc(Cl)cc1)CC,1%,-4,-4%,1.9%
COc1ccc2oc(C(=O)OCC(=O)N3CCC(C)CC3)c(C)c2c1,-5%,.,9%,0.7%
COc1ccc(S(=O)(=O)N(C)C[C@H]2Oc3ccc(NC(=O)Nc4ccc5c(c4)OCO5)cc3CC(=O)N([C@@H](C)CO)C[C@@H]2C)cc1,.,.,-1%,3.5%
Cc1ccc2nc(-c3ccccc3)cc(C(=O)N(C)CC(=O)Nc3ccccc3Br)c2c1,.,.,17%,4.1%
CC1CN(Cc2ccccc2)c2ccccc2NC1=S (stereo unspecified),5%,-8,-6%,-5.0%
COc1ccc(-c2nnc(SCC(=O)c3cc(C)n(Cc4cccs4)c3C)o2)cc1,-7%,-2,-2%,-0.9%
O=C(O)c1cccc(-n2cccc2/C=C2\SC(=O)N(Cc3ccccc3F)C2=O)c1,-1%,-7,-19%,4.0%
CC(C)C(=O)NS(=O)(=O)c1ccc(NS(C)(=O)=O)cc1,-6%,3,11%,0.2%

# Whole records, quoted from the list. Order of screens: miR-21 reporter	GLA inh pH 4.5	Rango dissoc inh	Rango-impB inh
# CCN(/C=N/S(=O)(=O)c1ccc(Cl)cc1)CC across the screens: 1%	-4	-4%	1.9%
# Cc1cc(Nc2ccc(F)cc2C)n2ncnc2n1 across the screens: -13%	4	9%	-2.4%
# CC1CN(Cc2ccccc2)c2ccccc2NC1=S (stereo unspecified) across the screens: 5%	-8	-6%	-5.0%
# COc1ccc(NC(=O)CSc2nnc(C3CC3)n2C)cc1S(=O)(=O)N1CCCCC1 across the screens: .	.	12%	0.1%

# Next records follow:
SMILES,miR-21 reporter,GLA inh pH 4.5,Rango dissoc inh,Rango-impB inh
CC(=O)Nc1cccc(NC(=O)CSc2nn3c(=O)c(C)nnc3s2)c1,6%,-2,?,1.8%
S=C(NCc1ccc2c(c1)OCO2)NCc1ccco1,-22%,-6,-2%,-0.3%
COC(=O)c1c(NS(C)(=O)=O)sc2c1CCCC2,-5%,-17,-7%,0.0%
N/C(Cn1cncn1)=N\NC(=O)C(=O)Nc1cccc(C(F)(F)F)c1,-4%,6,-7%,-1.8%
COc1ccc(-c2noc(CN(C)C(=O)c3ccc4c(c3)OCO4)n2)cc1OC,-9%,.,-6%,-0.7%
COc1ccccc1N(Cc1ccccc1)S(=O)(=O)c1cccc(C(=O)N2CCCCC2)c1,.,.,45%,-0.5%
O=C(NCc1ccccn1)c1cc(-c2ccc(Br)cc2)nc2ccccc12,-11%,10,1%,-0.4%
O=C(C[C@@H]1C/C=C\CC[C@@H](Cc2ccc(F)cc2)C(=O)OC[C@@H]2CCCN2C1=O)NCCO,.,.,1%,3.9%
Cc1[nH]c(=O)[nH]c(=O)c1S(=O)(=O)N(C)Cc1ccccc1,0%,4,8%,-0.1%
CCC(C)Sc1nc2c(c(=O)n1C)SC(C)C2 (stereo unspecified),-13%,0,-10%,1.5%
CCNC(=S)N1CCCC(c2nc3ccc(C)cc3[nH]2)C1 (stereo unspecified),-12%,-25,6%,0.4%
CC#CC[N+](C)(C)CCCCCCCCCC,?,-6,1%,1.3%
CN(C(=O)CC1C(=O)NCCN1Cc1ccc(F)c(F)c1)C1CCOCC1 (stereo unspecified),0%,-4,2%,-3.3%
CN=C(c1ccc(C)cc1)n1c(=S)nc(-c2ccc(C)cc2)n(C)c1=S,-44%,3,-13%,0.8%
COc1cccc(OCc2cc(C(=O)N3CCN(c4ccccc4O)CC3)no2)c1,-43%,.,0%,0.0%
O=C(NC1CCCCC1)N1CCCC1,1%,-5,4%,0.8%
CCCCC(=O)O[C@]1(C(=O)CO)CC[C@H]2[C@@H]3CCC4=CC(=O)CC[C@]4(C)[C@H]3[C@@H](O)C[C@@]21C,-35%,-6,0%,0.9%
CCN(CC)c1ccc(NC(=O)CC2Oc3ccccc3NC2=O)c(C)c1 (stereo unspecified),22%,0,2%,0.0%
COCC(=O)Nc1ccc2c(c1)OCC(=O)N2Cc1ccc(C)cc1,-44%,.,1%,-4.0%
O=C1CC(c2ccccc2F)c2cc3c(cc2N1)CCC3 (stereo unspecified),21%,2,13%,-1.2%
CCN1C(=O)C(CC(=O)Nc2ccc(OC)cc2)N(CCc2ccccc2F)C1=S (stereo unspecified),22%,1,-12%,3.5%
CCOc1cc(C)c(Cl)cc1S(=O)(=O)NC1CC(C)(C)NC(C)(C)C1,-16%,7,-7%,4.1%
CCC1Sc2ccc(S(=O)(=O)CCC(=O)Nc3ccccc3Br)cc2NC1=O (stereo unspecified),6%,.,16%,-3.1%
COCCN1CCN(C(=O)c2ccc3oc(CCc4ccccc4)nc3c2)CC1,-30%,.,-2%,-3.4%
O=C(CCCn1cncn1)N1CCCC(N2CCN(c3ccc(F)cc3)CC2)C1 (stereo unspecified),-1%,.,2%,-3.3%

# Given with bars between the fields: three of the compounds above.
SMILES | miR-21 reporter | GLA inh pH 4.5 | Rango dissoc inh | Rango-impB inh
O=c1cc(CO)oc(CN2CCCC2)c1O | 0% | 3 | -8% | -0.9%
Cc1cc(Nc2ccc(F)cc2C)n2ncnc2n1 | -13% | 4 | 9% | -2.4%
COc1ccc(CNC(=O)C(C)N(Cc2ccccc2OC)C(=O)c2snc(C(N)=O)c2N)cc1 (stereo unspecified) | 15% | . | -12% | ?

# Going on with the list:
SMILES,miR-21 reporter,GLA inh pH 4.5,Rango dissoc inh,Rango-impB inh
O=C1C(=Cc2cccn2-c2ccc(O)cc2)C(=O)c2ccccc21,-1%,-4,-3%,9.6%
Cc1cc2ncn(CCC(=O)NC(C)(C)C)c2cc1C,9%,-20,-3%,-1.6%
Nc1c(-c2ccc3c(c2)OCCO3)oc2ccccc2c1=O,-67%,.,?,?
CC1CCC(NC(=O)c2ccc(S(C)(=O)=O)cc2)CC1 (stereo unspecified),-36%,7,-4%,-1.4%
Cc1c(OC(C)C(=O)NCC(O)c2ccccc2)ccc2c3c(c(=O)oc12)CCCC3 (stereo unspecified),8%,.,1%,0.1%
COc1cc(/C=C(/C#N)c2nc3ccccc3[nH]2)ccc1OC(=O)c1ccco1,-21%,-1,?,?
COC(=O)c1c(C)oc(C)c1S(=O)(=O)Nc1ccccc1,-3%,3,9%,-4.4%
N#Cc1cccc(OCC(=O)NC(=O)NCc2ccccc2)c1,-1%,7,40%,-1.8%
Nn1c(SCc2cccc(Cl)c2)nnc1-c1ccncc1,-9%,1,-2%,1.7%
O=C(COC(=O)c1cccnc1)Nc1ccc(F)cc1,0%,-1,-11%,-3.5%
CC(=O)c1ccc(C(=O)N(CCN(C)C)c2nc3c(Cl)cccc3s2)cc1,2%,-6,-14%,0.6%
O=C(NC1CCCCC1)C(c1ccc(F)cc1)N(CCc1ccccc1)C(=O)CN1C(=O)c2ccccc2S1(=O)=O (stereo unspecified),-10%,-1,1%,1.4%
C=CCc1cccc(C=Nc2cccn3cc(-c4ccccc4)nc23)c1O,-41%,3[21.1 µM],-9%,?
Cc1nn(-c2ccccc2)c(C)c1C(=O)NCc1ccccc1F,-7%,.,-7%,0.1%
O=C(CC(c1ccc(F)cc1)c1ccco1)N1CCCC1 (stereo unspecified),-3%,2,-2%,-7.7%
O=C(CN(C1CCCCC1)S(=O)(=O)c1ccc(F)cc1)Nc1ccc2c(c1)OCO2,-4%,-6,0%,3.6%
CCOc1ccc(CC(=O)C2C(=O)CCCC2=O)cc1OCC,-3%,-1,-4%,-0.5%
CN(C)c1ccc(C(=O)NC2(N3CCC3=O)CCCC2)cc1,-18%,7,14%,-2.5%
COc1ccc(N2CCC(CNC(=S)Nc3cccc(C)c3)C2)cc1 (stereo unspecified),-9%,-12,-7%,0.3%
O=C(CSc1cn[nH]n1)Nc1ccccc1C(F)(F)F,-3%,.,14%,4.5%
COc1ccc(C(=O)NCc2c(CC(C)C)oc(C)c2C(=O)O)cc1,-6%,-3,0%,0.2%
CN=C1C=C/C(=N/N=c2\ccn(O)cc2C)C=C1C,-46%,-8,4%,?
COc1ccc2cc(C(=O)N3CCc4ccccc43)[nH]c2c1,-49%,.,7%,0.3%
CC1CCN(S(=O)(=O)c2ccc(NC(=O)C3CSC4(C)CCC(=O)N34)cc2)CC1 (stereo unspecified),.,.,8%,4.2%
c1ccc(-c2n[nH]nc2-c2ccccc2)cc1,-9%,-8,-27%,-0.8%

# Additional entries.
SMILES,miR-21 reporter,GLA inh pH 4.5,Rango dissoc inh,Rango-impB inh
CC(C(=O)O)N1C(=O)/C(=C/C=C/c2ccco2)SC1=S (stereo unspecified),0%,-1,-22%,?
O=C(O)c1nn(CCSc2ccccc2F)c(=O)c2ccccc12,-19%,2,-13%,-1.0%
CCc1ccccc1NC(=O)CSc1n[nH]c(C)c1[N+](=O)[O-],-15%,0,5%,0.3%
Cc1ccc(N2CC(C(=O)OCC(=O)c3ccc(F)cc3)CC2=O)cc1 (stereo unspecified),0%,.,7%,-1.9%
Cc1ccccc1-n1c(-c2csc3ccccc23)n[nH]c1=S,-12%,-2,5%,-3.6%
CC1CCN(S(=O)(=O)c2nnc(NC(=O)COc3ccccc3F)s2)CC1,0%,.,-7%,0.9%
O=C(COC(=O)/C=C/c1ccc(F)cc1)Nc1ccc2[nH]c(=O)[nH]c2c1,.,.,2%,1.0%
Cc1cc(C)n(CC(O)COc2ccccc2Br)n1 (stereo unspecified),-21%,.,-5%,-0.4%
COc1cccc2cc(C(=O)OCc3ccccc3)c(=O)oc12,-10%,.,1%,-2.5%
Cc1ccc(-n2ccc(=O)c(C(=O)Nc3ccc(S(=O)(=O)Nc4onc(C)c4C)cc3)n2)cc1,3%,.,?,?
COc1cc(OC)cc(C(=O)NCC(=O)NC(C)c2ccccc2)c1 (stereo unspecified),2%,.,-6%,-1.0%
COc1ccc(Br)cc1CN(C)C(=O)c1ccccc1SCC(=O)N1CCCC1,.,.,9%,1.0%
Cc1cc2ncn(C(=O)N3CCCC3)c2cc1C,-22%,0,-10%,0.3%
COc1cccc(Nc2ccc([N+](=O)[O-])c3nonc23)c1,0%,.,3%,5.5%
O=C(CSc1nnc(Cc2ccccc2)o1)NCc1ccco1,0%,4,-12%,-2.2%
CC(C)(C)Cc1nnc(NS(=O)(=O)c2ccccc2)s1,-6%,3,9%,0.2%
Cc1cc(C)n(C(=O)CN2C(=O)COc3ccccc32)n1,-3%,-18,1%,-5.9%

# This is a subset. The share of hits here may be higher or lower than overall.
